H5N1 CPE: MDCK cell protection from H5N1 avian flu. cytopathic effect, luminescence, 72 h; active compounds read high; no value below 0 was filed and about half of the inactive calls have no number; reference of the scale not given here. inhibition, % at 50 µM. 0.07% of 96,000 active; in the data active = inhibition above about 25%
Numbers without * were called inactive; i = inactive. These rows are one share of the data; rates above refer to the full screens.

SMILES	H5N1 CPE
Cc1ccc(C)n1NC(=O)c1ccccc1O	i
COC(=O)c1ccc(CSc2nc(N)cc(N)n2)cc1	i
CCS(=O)(=O)NCCCc1ccccc1	0.2
Cc1cc(C)c(S(=O)(=O)N2CCCC(C(=O)NCCC3=CCCCC3)C2)c(C)c1 (stereo not drawn)	0.2
COc1ccc(NC(=O)C2=C(C)NC(=O)NC2c2cccc(OC)c2OC)c(OC)c1 (stereo not drawn)	0.1
Cc1ccc(-c2nnc3sc(C4COc5ccccc5O4)nn23)cc1 (stereo not drawn)	i
CN(C)S(=O)(=O)c1cccc(C(=O)Nc2cc(Cl)cc(Cl)c2)c1	0.1
Cc1cc(C)c2nc(C(F)(F)F)nc(NCCCN3CCCC3=O)c2c1	i
CCCCn1cnc2cc(NCc3ccncc3)ccc21	0.4
CCCCOC(=O)c1ccc(NC(C)=O)cc1	i
O=C1CCCC2=C1C(c1ccc(Cl)cc1)C1C(=O)c3ccccc3C1=N2 (stereo not drawn)	3.9
CC1(C)Cc2ccccc2C(NNC(=O)c2ccccn2)=N1	i
COc1ccc(C(=O)N2CCOCC2)cc1S(=O)(=O)N1CCC(C)CC1	1.1
O=C1C(c2ccccc2)SC(=Nc2ccccc2)N1S(=O)(=O)c1ccccc1 (stereo not drawn)	i
CCOc1ccc(-c2n[nH]c(C)c2-c2ccccc2OC)c(O)c1	4.8
CCOC(=O)C(NC(=O)c1ccccc1)=C(C)C	0.5
Cc1coc2cc3oc(=O)c4c(c3cc12)CCC4	2.0
O=C(NCCCN1CCN(c2ccccc2F)CC1)C1CCCN(S(=O)(=O)c2cnc[nH]2)C1 (stereo not drawn)	0.6
COc1ccc(Cc2nc(-c3ccc(NC(=O)c4cccnc4)cc3)no2)cc1	0.2
COc1ccc(-c2nnn(CC(=O)N(Cc3ccccc3Cl)C(C(=O)NCC3CCCO3)c3ccco3)n2)cc1OC (stereo not drawn)	i
CCOC(=O)c1[nH]c2ccc(OCC)cc2c1NC(=O)CN1CCCC(C)C1 (stereo not drawn)	0.4
O=C1C2CC=CCC2C(=O)N1c1n[nH]c(Cc2ccccc2)n1 (stereo not drawn)	i
CCOC(=O)/C=C1\CC(=O)Nc2nonc2N1	0.5
CC(C)(C)c1csc(NC(=O)c2cccs2)n1	i
O=C(Nc1ccc2oc(=O)ccc2c1)c1cccnc1Cl	i

Some of the entries above in another layout.
O=C(Nc1ccc2oc(=O)ccc2c1)c1cccnc1Cl
  H5N1 CPE: i

CCCCOC(=O)c1ccc(NC(C)=O)cc1
  H5N1 CPE: i

Cc1cc(C)c(S(=O)(=O)N2CCCC(C(=O)NCCC3=CCCCC3)C2)c(C)c1 (stereo not drawn)
  H5N1 CPE: 0.2

CC(C)(C)c1csc(NC(=O)c2cccs2)n1
  H5N1 CPE: i

As entered above.
For H5N1 CPE, CCS(=O)(=O)NCCCc1ccccc1 shows 0.2
For H5N1 CPE, O=C(NCCCN1CCN(c2ccccc2F)CC1)C1CCCN(S(=O)(=O)c2cnc[nH]2)C1 (stereo not drawn) shows 0.6

Further compounds.
SMILES	H5N1 CPE
Cn1nccc1C(=O)OCC(=O)Nc1nc(-c2ccccc2)cs1	i
CC(C)CNS(=O)(=O)c1ccc(CCC(=O)N2CCN(Cc3ccc4c(c3)OCO4)CC2)cc1	5.5
Cc1ccc(-c2nc(C#N)c(N3CCCCC3)o2)cc1	1.5
Cc1cc(S(=O)(=O)NCC(C)C)ccc1OCC(=O)N1CCN(Cc2ccccc2)CC1	3.0
O=C(NNS(=O)(=O)c1ccc(Cl)cc1)c1sccc1-n1cccc1	0.3
CCOc1ccc(-n2c(SCC(=O)Nc3ccc4c(c3)OCCO4)nc3c(c2=O)SCC3)cc1	0.8
CCOC(=O)c1cc(CC)sc1NC(=O)Cc1ccccc1	6.2
O=C(O)C1CC1C(=O)N1CCN(c2ccc(Cl)c(Cl)c2)CC1 (stereo not drawn)	i
COc1ccc(CCN(C)Cc2c(F)cccc2F)cc1OC	i
O=C(NCC(=O)N(CCc1ccccc1)C(C(=O)NC1CCCC1)c1cccnc1)c1ccco1 (stereo not drawn)	0.3
COc1ccccc1Cc1nnnn1CC(=O)O	0.8
Cc1csc(SCC(=O)c2c(N)n(C)c(=O)n(C)c2=O)n1	0.3
O=S(=O)(NC12CC3CC(CC(C3)C1)C2)c1ccc(F)cc1	3.6
CC(C)NC(=O)C(OC(=O)c1ccccc1)C(OC(=O)c1ccccc1)C(=O)O (stereo not drawn)	i
O=C(COc1ccc(Cl)cc1Cl)Nc1ccccn1	1.0
CC1(CC(=O)N/N=C/c2ccc(-c3ccc(C(=O)O)cc3)o2)OCCO1	i
O=C(O)C1C2C=CC(O2)C1C(=O)Nc1ccc(S(=O)(=O)Nc2ccccc2)cc1 (stereo not drawn)	0.4
O=C1c2ccccc2NC2CCCCCN12 (stereo not drawn)	i
CCN(CC)CCN1C(=O)C(O)=C(C(=O)c2ccco2)C1c1ccccn1 (stereo not drawn)	0.7
COc1cc2c(cc1OC)CN(C(=O)C1(c3ccccc3)CC1)CC2	i
CCCOc1ccc(N2C(=O)CC(NCCNc3ccc(S(=O)(=O)CC)cc3)C2=O)cc1 (stereo not drawn)	0.1
O=C(CN1CCCCC1)Nc1ccc(F)c(Cl)c1	0.0
O=C(NCc1cccs1)C1CC(=O)N(c2ccccc2)C1 (stereo not drawn)	i
COc1ccc(CNC(=O)CN(c2cccc(OC)c2)S(C)(=O)=O)cc1	i
COc1ccccc1NC(=O)c1cccc(S(=O)(=O)N2CCOCC2)c1	0.5

Not a retest: 2 of the compounds above.
SMILES	H5N1 CPE
Cn1nccc1C(=O)OCC(=O)Nc1nc(-c2ccccc2)cs1	i
CC(C)CNS(=O)(=O)c1ccc(CCC(=O)N2CCN(Cc3ccc4c(c3)OCO4)CC2)cc1	5.5

Next section.
SMILES	H5N1 CPE
COc1ccc(-c2nc(C#N)c(NCCN(C)C)o2)cc1	2.7
Cc1cc(C(=O)C(C)OC(=O)C2=NNC(=O)CC2)c(C)n1-c1ccc(OC(F)F)cc1 (stereo not drawn)	0.8
O=C(c1cc2c(s1)CCC2)N1CCN(c2ccccc2)CC1	0.3
CCOC(=O)c1cc2sccc2n1CCCN1C(=O)c2ccccc2C1=O	i
O=C(O)c1ccc(NS(=O)(=O)/C=C/c2ccccc2)cc1	0.2
Cc1coc(C)c1C(=O)CC1(O)C(=O)N(Cc2ccccc2)c2ccccc21 (stereo not drawn)	i
CCOC(=O)c1[nH]c2ccc(OC)cc2c1NC(=O)C(C)N1CCC2(CC1)OCCO2 (stereo not drawn)	i
CCC(=O)Nc1sc2c(c1C#N)CC(C)(CC)OC2 (stereo not drawn)	2.6
CC(C)CCn1nnnc1C(c1ccccc1)N1CCC(C(N)=O)CC1 (stereo not drawn)	0.7
Cc1nnc(NC(=O)C(C)Oc2ccc3c(C)cc(=O)oc3c2)s1 (stereo not drawn)	3.4
c1ccc(C(c2ccccc2)N2CCN(c3nc4ccccc4n4cnnc34)CC2)cc1	12
CN(C)c1nc(OCCNC(=O)Nc2ccccc2)nc(N2CCOCC2)n1	i
O=C(NCc1ccco1)Nc1ccc2nsnc2c1	2.7
O=C(c1ccc(Cn2cc(Cl)cn2)cc1)N1CCN(c2ccccc2)CC1	0.0
CCOC(=O)c1c(C)c(-c2ccccc2)n(CC(=O)NCCC(C)C)c1C	0.7
CCCC(=O)Nc1ccc(NC(=O)Cc2ccccc2)cn1	0.4
Fc1cccc(NCc2ccoc2)c1	i
CCCS(=O)(=O)N1CCC(C(=O)N2CCCC2)CC1	i
Nc1ccc(-c2cc(N)n(-c3ccccc3)n2)cc1	i
CCOc1ccc(NC(=O)CCCOc2cc(=O)n(C)c3ccccc23)cc1	0.6
Cn1c(CN2CCCCC2)nc2cc(NC(=O)c3ccccc3)ccc21	i
CCOC(=O)c1c(C)[nH]c(C)c1C(=O)COC(=O)[C@@H]1CCCN1S(=O)(=O)c1ccc(Cl)cc1	i
COCCNc1oc(COc2cccc(C)c2)nc1C#N	i
CCC1(CC)NC(=O)N(CC(=O)NCc2ccc3c(c2)OCO3)C1=O	0.1
CN1CCc2c(c3ccccc3n2Cc2ccccc2)C1	i

(cont.)
SMILES	H5N1 CPE
O=C(COC(=O)Cc1ccc2c(c1)OCCO2)Nc1ccc(S(=O)(=O)N2CCCC2)cc1	i
CC1(C)CC(=O)C(C=NCCN2CCOCC2)=C(O)C1	1.0
COC(=O)c1cc2sccc2n1Cc1ccc(C)cc1	i
CC1=CCC(Cc2nc3ccccc3o2)C1(C)C (stereo not drawn)	i
Cc1cccc(NC(=O)C2CCN(c3nccc(C)n3)CC2)c1	i
CC(C)OC(=O)CSc1nnc(-c2ccc(Cl)cc2Cl)n1N	i
CCOC(=O)CNC(=O)CSc1nc(N)cc(N)n1	i
Cn1c(=O)c2c(nc(N3CCCCC3)n2CCNC2=NCCC2)n(C)c1=O	i
CSc1cc(-c2ccc(Cl)cc2)c(C(=O)N2CCCC2)s1	13
Cc1[nH]c2ccccc2c1C(=O)CN1CCCC1	0.6
O=C1c2ccccc2C(=O)C1c1nccc2ccccc12	i
O=C(Cc1coc2ccc3ccccc3c12)N1CCCC1	i
CCOC(C(=O)OCCCN(CC)CC)(c1ccccc1)c1ccccc1	i
COC(=O)c1cc2c(s1)=NC=NP=2(N1CCOCC1)N1CCOCC1	0.8
CC(C)OCCCn1c(=S)[nH]c2ncccc2c1=O	1.0
CC(=O)c1ccc(NC(=O)CSc2nnc(-c3ccoc3C)n2Cc2ccccc2)cc1	0.8
Cc1cc(OCc2nn[nH]n2)c2c(C)c(Cc3ccccc3)c(=O)oc2c1	i
COC(=O)c1cccc(NC(=O)CN(c2ccc3c(c2)OCO3)S(C)(=O)=O)c1C	0.4
Cc1[nH]c2ccccc2c1C(c1ccccn1)N1CCC(C)CC1 (stereo not drawn)	i
CN(c1ccc(OCC(=O)Nc2ccc3[nH]c(=O)[nH]c3c2)cc1)S(=O)(=O)c1ccc(Cl)cc1	0.6
Cc1ccc(C(=O)C2CCN(CC(=O)Nc3ccc(N(C)C)cc3)CC2)cc1	i
Cc1ccccc1NC(=O)CSc1nc(N)c(C#N)c(-c2cccs2)c1C#N	i
O=[N+]([O-])c1ccc(N2CCN(S(=O)(=O)Cc3ccccc3)CC2)cc1N1CCOCC1	2.3
Cc1ccc(S(=O)(=O)N(C)CC(=O)Nc2nc3ccccc3s2)cc1	2.4
COc1ccc(-n2nnnc2SCC(=O)NCCc2ccc(OC)c(OC)c2)cc1	i

(more compounds)
SMILES	H5N1 CPE
CCOC(=O)C1CCCN(CC(=O)Nc2c(F)c(F)c(F)c(F)c2F)C1 (stereo not drawn)	0.4
Cn1c(=O)c2c(nc(NCc3ccc4c(c3)OCO4)n2Cc2ccccc2)n(C)c1=O	2.9
CCCCn1c(CCCNC(=O)CC)nc2ccccc21	1.6
COc1ccc(C2CC(C(F)(F)F)n3ncc(C(=O)NCC4CCCO4)c3N2)cc1OC (stereo not drawn)	0.1
COc1ccc(Cn2c(=O)c3c(nc(NCCO)n3C)n(C)c2=O)cc1	i
CCSc1nnc(-c2ccncc2)n1Cc1ccccc1	i
Cc1ccc(CNC(=O)c2sc3nc4c(c(C(F)(F)F)c3c2N)CCC4)cc1	0.1
N#C/C(=C\c1ccc(Oc2ccc(C(F)(F)F)cc2[N+](=O)[O-])cc1)c1nc2ccccc2[nH]1	i
CCOC(=O)N1CCN(C(=O)/C(=C/c2ccc(OC)cc2)NC(=O)c2ccccc2)CC1	i
C/C=C(\C)CN1CCN(c2cc(C)ccc2C)CC1	i
Nn1c(SC/C=C/c2ccccc2)nnc1-c1ccccn1	i
CCOC(=O)CNC(=O)c1sc(NC(=O)c2cccc(F)c2)nc1C	0.1
CCCn1c(/N=C/c2ccc3c(c2)OCO3)nc2ccccc21	1.4
O=c1c2ccccc2nc(CSc2nnnn2-c2ccccc2)n1-c1ccccc1	i
CC1=C(C(=O)OCc2ccccc2)C(c2cccnc2)c2c(n(C)c(=O)n(C)c2=O)N1 (stereo not drawn)	1.4
Cc1cc(C)c(S(=O)(=O)Nc2cccc3nsnc23)c(C)c1	0.1
CCOC(=O)c1cnc(SC)nc1Oc1cccc(NC(=O)c2ccc(Cl)cc2)c1	i
Cc1ccc(C(=O)CCNc2ccc(Br)cc2)o1	i
CCn1c(=O)c(=O)n(CC)c2cc(S(=O)(=O)Nc3cccc(OC)c3)ccc21	0.8
CC1CCN(CC(=O)Nc2sc3c(c2C#N)CCC3)CC1	i
CN1C2CCC1/C(=C\c1ccccc1)C(=O)/C2=C\c1ccccc1	i
Cc1ccc(-c2cc3nc(C)cc(NCc4ccco4)n3n2)cc1	i
N#C/C(=C\c1cn[nH]c1-c1ccc(Cl)cc1)C(=O)NCc1ccccc1	i
CSc1cccc(NC(=O)c2ccccc2N(C)S(C)(=O)=O)c1	1.4
CCc1ccc2c(c1)[C@]1(C(=O)N2)[C@@H]2C(=O)N(Cc3ccccc3)C(=O)[C@@H]2[C@@H]2CCCN21	i

Going on with the list:
SMILES	H5N1 CPE
Cc1cc(=O)c2ccccc2[nH]1	i
CCCC1(C(=O)O)NC(c2cccc(OC)c2O)C2C(=O)N(c3ccccc3)C(=O)C21 (stereo not drawn)	i
CC(C)(C)c1cc(-c2ccco2)c(C#N)c(SCC#N)n1	2.8
CC1CCN(c2nc(-c3ccncc3)nc3ccccc23)CC1	i
C/C(=N/NC(=O)c1ccc(NC(=O)c2ccc(F)cc2)cc1)c1ccccc1	i
O=C(CNCC1CCCO1)Nc1ccccc1-n1cccc1 (stereo not drawn)	0.4

Looked up one by one from the list above, five records:
SMILES	H5N1 CPE
CC1CCN(c2nc(-c3ccncc3)nc3ccccc23)CC1	i
O=C(CNCC1CCCO1)Nc1ccccc1-n1cccc1 (stereo not drawn)	0.4
Cc1cc(=O)c2ccccc2[nH]1	i
CCCC1(C(=O)O)NC(c2cccc(OC)c2O)C2C(=O)N(c3ccccc3)C(=O)C21 (stereo not drawn)	i
CC(C)(C)c1cc(-c2ccco2)c(C#N)c(SCC#N)n1	2.8

Screening data (PubChem)
